VDR inhibitor: vitamin D3 receptor (human) inhibition. P11473. VDR-SRC2-3 peptide fluorescence polarization, 2 h. Potency, µM, for inactives: max response, negative = inhibition, hits mostly inhibitors. 0.93% of 400,000 active; active = well fitted inhibition curve with a large enough effect; inconclusive = small, poorly fitted or top-dose-only effect, or another doubt; inactive = no such curve, though single readings can be large or run the other way; also: series mostly up to about 120 µM
Target sequence (P11473 whole entry, looked up): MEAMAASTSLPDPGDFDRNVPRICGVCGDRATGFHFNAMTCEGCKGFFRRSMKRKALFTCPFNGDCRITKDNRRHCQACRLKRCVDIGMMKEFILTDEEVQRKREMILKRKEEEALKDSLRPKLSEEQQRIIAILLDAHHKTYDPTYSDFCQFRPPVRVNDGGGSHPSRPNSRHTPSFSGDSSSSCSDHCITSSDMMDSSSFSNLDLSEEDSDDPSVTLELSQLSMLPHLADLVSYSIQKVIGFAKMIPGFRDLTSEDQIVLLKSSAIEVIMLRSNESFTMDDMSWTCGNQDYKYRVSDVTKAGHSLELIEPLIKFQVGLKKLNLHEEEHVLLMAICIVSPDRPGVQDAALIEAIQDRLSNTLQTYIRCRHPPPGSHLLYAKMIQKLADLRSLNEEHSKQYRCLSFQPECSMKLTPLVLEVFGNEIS
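Measured by FP: displacement of SRC2-3 coactivator peptide from VDR by library compounds, following a two-hour ambient incubation.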
* marks the source's active call; other numbers are inactive results; ? = inconclusive; & = joins results of further samples. % is scaled to controls: 0 for no effect and ±100 for the full control effect; potency is read from the fitted curve at half-maximal effect. A portion of the library. The share of hits here may be higher or lower than overall.

VDR inhibitor | canonical_smiles
13% | Cc1ccccc1NC(=O)C(C)OC(=O)c1ccccc1C(=O)N(C)c1ccccc1 (stereo not drawn)
-14% | Cc1csc(=O)n1CC(=O)OCC(=O)Nc1cc([N+](=O)[O-])ccc1Cl
-19% | CN(C)/C=C(/C(=O)c1ccccc1Cl)S(=O)(=O)c1ccccc1
6% | COc1ccc2c(Sc3ccccc3)c(C(=O)NCCN(C)C)[nH]c2c1
-3% | COc1ccc(C2NC(=O)NC3=C2C(=O)CCC3)cc1 (stereo not drawn)
5% | COc1cccc(OC)c1C(=O)NC(=O)Nc1c(F)cc(F)cc1F
-12% | COC(=O)c1ccccc1NC1c2ccccc2C(=O)N1c1cccnc1 (stereo not drawn)
5% | O=C(NC1CC2CCCC(C1)N2C(=O)Nc1ccccc1)c1ccccc1 (stereo not drawn)
-1% | CC(=O)c1ccc(OC(C)C(=O)NCC2(N3CCOCC3)CCCCC2)cc1 (stereo not drawn)
3% | c1ccc(-c2nc(N3CCCCCC3)c3ccccc3n2)nc1
-16% | CCOc1ccc2nc(SCC(=O)NCc3ccc(S(N)(=O)=O)cc3)[nH]c2c1
5% | COc1ccc(C(C(N)=O)c2ncc(C(F)(F)F)cc2Cl)cc1OC (stereo not drawn)
-10% | CSc1nsc(/C=C/Nc2ccc(C(=O)O)cc2)c1C#N
-5% | Cc1cc2ncn(S(=O)(=O)c3ccc(S(=O)(=O)N4CCCCCC4)cc3)c2cc1C
-15% | COc1ccc(OC/C(O)=C(\C#N)c2nc3ccccc3[nH]2)cc1
-10% | Cc1ccc(NC(=O)CCSc2nc(-c3ccc4c(c3)OCO4)cc(C(F)(F)F)n2)cc1
? | Cc1cccc2cc(/C=C/C(=O)c3ccco3)c(Cl)nc12
-6% | CC1CCCC(C)N1S(=O)(=O)c1ccc(NC(=O)c2ccccc2C(=O)N2CCOCC2)cc1 (stereo not drawn)
9% | c1ccc(-n2nnnc2-n2cnc3ccccc32)cc1
0% | CS(=O)(=O)Nc1ccc(-c2cn3c(n2)SCC3)cc1

Part of the list above in order of SMILES length, falling:
VDR inhibitor | canonical_smiles
-5% | Cc1cc2ncn(S(=O)(=O)c3ccc(S(=O)(=O)N4CCCCCC4)cc3)c2cc1C
-14% | Cc1csc(=O)n1CC(=O)OCC(=O)Nc1cc([N+](=O)[O-])ccc1Cl
-15% | COc1ccc(OC/C(O)=C(\C#N)c2nc3ccccc3[nH]2)cc1
? | Cc1cccc2cc(/C=C/C(=O)c3ccco3)c(Cl)nc12
-10% | CSc1nsc(/C=C/Nc2ccc(C(=O)O)cc2)c1C#N
9% | c1ccc(-n2nnnc2-n2cnc3ccccc32)cc1

Going on with the list:
VDR inhibitor | canonical_smiles
-16% | O=C(NCCc1csc(-c2cccnc2)n1)c1ccc(Cl)cc1
-3% | CN(CC(=O)Nc1ccc(F)cc1)C(=O)CCc1nc2sc3c(c2c(=O)[nH]1)CCCC3
-3% | O=C(NCc1cccs1)C1(S(=O)(=O)c2ccccc2)CC=CC1
6% | CCNc1ccc(C(=O)OCC)cc1NC(=O)c1cccc(S(=O)(=O)N2CCOCC2)c1
-12% | CCc1c(C)c(C#N)c2nc3ccccc3n2c1NC
10% | CC(=O)N1CC(C)Oc2ccc(S(=O)(=O)NC(CC(=O)O)c3ccc(C)cc3C)cc21 (stereo not drawn)
-5% | CCC(C)N(C(=O)COC(=O)c1cn(CC)c2nc(C)ccc2c1=O)C1CCS(=O)(=O)C1 (stereo not drawn)
16% | Cc1cccc(C)c1-n1ncc(C(=O)N2CCN(c3ccccc3)CC2)c1C1CCN(C(=O)OC(C)(C)C)CC1
-7% | O=C(CSc1ccccn1)N/N=C/c1ccccc1[N+](=O)[O-]
3% | CCOC(=O)N1CCN(S(=O)(=O)c2ccc(OC)c(Cl)c2)CC1

Some of these compounds in order of the VDR inhibitor value, lowest first:
Molecule | VDR inhibitor
CCc1c(C)c(C#N)c2nc3ccccc3n2c1NC | -12%
CCOC(=O)N1CCN(S(=O)(=O)c2ccc(OC)c(Cl)c2)CC1 | 3%
CCNc1ccc(C(=O)OCC)cc1NC(=O)c1cccc(S(=O)(=O)N2CCOCC2)c1 | 6%

Additional compounds follow.
VDR inhibitor | canonical_smiles
-4% | c1ccc(CN2CCC(Nc3nc(-c4cccnc4)nc4ccccc34)CC2)cc1
8% | COc1ccc(NS(=O)(=O)c2ccc(Cl)c(N)c2)cc1Br
0% | CCOc1c(Cl)cc(/C=N/NC(N)=S)cc1OC
-8% | Cc1ccc(C(=O)NCc2ccco2)cc1S(=O)(=O)Nc1cccc(Cl)c1
-1% | O=C1CN(c2nc3ccccc3n3cnnc23)CC(=O)N1CCc1ccccc1
? | C/C=C1\COC(C(=O)NCc2ccncc2)(C(F)(F)F)C=C1C=C1CCCCC1 (stereo not drawn)
-1% | Cc1cc(OCC(=O)NCCN2CCOCC2)cc(C)c1Br
2% | COc1cc(CNCc2ccccn2)ccc1OCc1cccc(Cl)c1
-25% | O=C(NCCc1ccccc1)c1ccc(NC(=O)C2CCCCC2)cc1
45µM* | N#Cc1cccc(-c2nc(NCc3ccccc3)c3ccccc3n2)c1
-10% | COc1cccc(NC(=O)c2ccc3c(c2)N(CC(=O)N2CCCCC2)C(=O)C(C)(C)O3)c1
8% | Cn1c(=O)c2c(nc(NCc3ccc4c(c3)OCO4)n2Cc2ccccc2F)n(C)c1=O
-8% | COc1ccccc1N(C(C)=O)C1SC(=O)N(c2ccccc2)C1=O (stereo not drawn)
20% | COCCNC(=O)Cn1nc(-c2ccc(Cl)cc2)c2ccccc2c1=O
-4% | C/C(=N/Nc1nc(-c2ccc(Cl)cc2)cs1)c1cccs1
23% | COc1ccc(NC(=O)CS(=O)(=O)c2cn(CC(=O)N3CCOCC3)c3ccccc23)cc1
-8% | COc1ccc(-c2csc(NC(=O)Cc3ccccc3F)n2)cc1OC
-14% | Cc1ccc(-n2c(=O)c3c(C)c(C)sc3n(Cc3cc(=O)n4ccccc4n3)c2=O)cc1C
? | Cc1ccc(Nc2n[nH]c(=S)s2)cc1F
-17% | CC(=O)Cc1cc2cc([N+](=O)[O-])ccc2oc1=O
10% | O=C(Nc1cccc(C(F)(F)F)c1)c1cc2nc(-c3ccco3)cc(C(F)(F)Cl)n2n1
-10% | CC(C)CC(=O)N1CCN(C(=O)CCC2CCCC2)CC1
9% | CCC(C)C(NC(=O)OC(C)(C)C)C(=O)NC(Cc1ccccc1)C(=O)OC (stereo not drawn)
-12% | Cc1ccc(NC(=O)N(O)C2CCCCC2C#N)cc1 (stereo not drawn)
4% | N#Cc1ccccc1OCC(=O)Nc1nnc(C2CC2)s1
-21% | NS(=O)(=O)c1ccc(CCNC(=O)CSc2ccccc2)cc1
? | COc1ccc(CCNC(=O)CSCc2ccc([N+](=O)[O-])cc2)cc1OC
? | C=CCn1c(Cc2cccs2)nnc1SCC(=O)c1cccc(Br)c1
-15% | CN(C)CCNc1nc2c(c(=O)[nH]c(=O)n2C)n1CCCc1ccccc1
-21% | COC(=O)c1ccc(C(=O)OC)c(NC(=S)N2CCN(c3ccc(F)cc3)CC2)c1
0% | CC1=NCCN1CCNC(=O)Nc1ccc(F)cc1
-11% | CN1C(=S)SC(N(O)C(=O)NC2CCCCC2)C1(C)C (stereo not drawn)
-14% | O=C(Nc1cccnc1)c1ccc(NS(=O)(=O)c2cc([N+](=O)[O-])ccc2Cl)cc1
-11% | CC(C)(c1ccccc1)c1ccc(OCCCNCCO)cc1
-18% | COCCSc1ccccc1C(=O)Nc1ccccc1C(C)C
3% | Cc1cc(C)cc(NC(=O)N2CCC(C(N)=O)(N3CCCCC3)CC2)c1
-8% | COCCN(C(=O)COC(=O)/C(=C/c1ccccc1)NC(C)=O)c1c(N)n(Cc2ccccc2)c(=O)[nH]c1=O
-2% | Cc1ccccc1C(=O)N1CCN(c2ccc(NC(=O)c3ccc4c(c3)OCO4)cc2)CC1
-5% | CN(C)C(=O)c1ccc(Nc2ncnc3sc4c(c23)CCCCC4)cc1
12% | CCC(/C=N/NC(=O)C(=O)N/N=C/C(CC)CC)CC
-9% | CC(C)NC(=O)c1onc(CSc2cccc3ccccc23)c1C(=O)O
-17% | CCCOc1ccccc1/C=C(\C#N)C(=O)Nc1cccnc1
-25% | COc1cc(/C=N/NS(=O)(=O)c2ccc(C)c([N+](=O)[O-])c2)ccc1O
3% | COc1ccc(Cl)cc1N1C(=O)CC(Sc2ccccc2N)C1=O (stereo not drawn)
7% | CN(Cc1nc2ccccc2n1C)S(=O)(=O)c1ccc(F)cc1
-8% | COc1ccc(Nc2nc(C)cc(=O)[nH]2)c(OC)c1
-8% | CN1C(=O)C2C3c4ccccc4C(c4ccccc43)[C@@H]2C1=O (stereo partly drawn)
-10% | Cc1cc(=O)n(CC(=O)N2CCN(c3ccc(F)cc3)CC2)c2c1c(C)nn2C
0% | CCOC(=O)Cn1nnc(-c2cc(OC)c(OC)c(OC)c2)n1
-10% | NNC(=O)CSc1cccc2cccnc12

Following part.
VDR inhibitor | canonical_smiles
5% | CCCCN1CCNC[C@@H]1Cc1ccccc1
-15% | CCOC(=O)C1C(c2ccc(OC)c(OC)c2)c2c([nH][nH]c2=O)CC1(C)O (stereo not drawn)
-25% | Cc1ccc(CNC(=O)C2CCN(S(=O)(=O)N3CCC4(CC3)OCCO4)CC2)cc1
-15% | COc1ccc(C(=O)/C=C2/Sc3cc4c(cc3N2C)OCO4)cc1
-2% | O=C(Cn1cnc2ccccc2c1=O)NCCC(=O)Nc1ccc2c(c1)OCO2
2% | O=C1CSC(c2ccccc2O)N1Cc1ccccc1 (stereo not drawn)
-23% | COc1cccc(NC(=O)Cn2c(=O)n(CCCCC(=O)NCc3ccc4c(c3)OCO4)c(=O)c3ccccc32)c1
-12% | Cc1sc(N2CCN(S(=O)(=O)c3ccc4c(c3)NC(=O)CO4)CC2)nc1-c1ccccc1
-7% | CCc1ccc(CNC(=O)CCn2c(=O)c3cccn3c3ccc(F)cc32)cc1
-1%&20% | CCCCN(CC)C(=O)Cn1ncc2c3ccccc3n(CCC)c2c1=O
-7% | COc1ccc(C2/C=C\CN(C(=O)C3CC3)C(C)C(=O)N2Cc2ccc(F)cc2)cc1 (stereo not drawn)
-14% | CCOc1cc(C2Nc3ccccc3C(=O)N2Cc2ccco2)ccc1O (stereo not drawn)
10% | Cc1cccc(S(=O)(=O)c2cn(C)c3cc(N4CCCCCC4)c(F)cc3c2=O)c1
-1%&-1% | NS(=O)(=O)c1ccc(NC(=O)c2ccc3c(c2)CCN3S(=O)(=O)c2ccccc2)cc1
-2% | COc1cc(S(=O)(=O)NC2CCCCC2C)ccc1Cl (stereo not drawn)
-6% | Cc1ccc(C(=O)NCC(=O)OCC(=O)c2c(N)n(C)c(=O)n(C)c2=O)cc1C
19% | O=C(CN1C(=O)C(c2ccc(F)cc2)=NC12CCCCCC2)Nc1ccccc1Cl
2% | CCCCC/C=C\C[C@@H]1O[C@H]1/C=C/C(O)C/C=C\CCCC(=O)O (stereo partly drawn)
-19% | CCC/C(C#Cc1ccsc1)=C1/c2ccccc2C(=O)N1c1ccccc1
5% | Cc1cccc(OCC(=O)NCc2cc(C)nc3ccccc23)c1
1% | C=CCSC1=N/C(=C\c2ccc3c(c2)OCO3)C(=O)S1
-23% | O=C(NCc1ccccc1)c1nc2ccccc2s1
-12% | O=C(c1cc(Cl)nc2ccccc12)N1CCc2ccccc2C1
-11% | Cc1cc(C)c(NC(=O)c2ccc(S(=O)(=O)N3CCOCC3)cc2)c(C)c1
15% | COc1cc(O)c2c(c1)COC2=O
-9% | Cc1cc(C(C#N)c2cccc(Cl)c2)n2ncnc2n1 (stereo not drawn)
1% | CCN1C(=O)CC(N2CCC(C(=O)N3CCCCCC3)CC2)C1=O (stereo not drawn)
-8% | O=C(O)CSc1nnc(-c2cccc(S(=O)(=O)N3CCCCC3)c2)o1
0% | CN(CC(=O)NCc1ccc2c(c1)OCO2)S(=O)(=O)c1ccc(Cl)cc1
-15% | CCOc1ccccc1NC(=O)COC(=O)CC(NC(N)=O)c1ccc(Cl)cc1 (stereo not drawn)
-9% | O=C(NCCc1ccccc1)c1cc2ncc(Br)cn2n1
? | O=S(=O)(O)c1ccc(O)c2cc(Nc3ccccc3)ccc12
5% | CC1CCN(S(=O)(=O)c2ccc3c(c2)c(=O)c(C(=O)NCc2ccc(Cl)cc2)cn3C)CC1
-18% | CSc1ccc(CCNC(=O)C2CCN(c3nnc(-n4cccc4)s3)CC2)cc1
-9% | COc1ccc(NC(=O)C2CC2)cc1-n1cnnn1
-11% | CNC(=O)NC(=O)COC(=O)CCc1nc(=O)c2ccccc2n1C
-7% | CCNC(=O)COc1ccc(/C=N/NC(=O)c2cccnc2)cc1OC
-6% | Cc1ccc(NC(=O)C2C3CCC(O3)C2C(=O)O)cc1Cl (stereo not drawn)
-10% | Cc1n(Cc2ccccc2)c2ccccc2[n+]1Cc1ccccc1
2% | O=c1c2nnn(-c3ccc(Br)cc3)c2ncn1Cc1ccccn1

The list goes on; it opens with the 3 that closed the last part.
VDR inhibitor | canonical_smiles
-6% | Cc1ccc(NC(=O)C2C3CCC(O3)C2C(=O)O)cc1Cl (stereo not drawn)
-10% | Cc1n(Cc2ccccc2)c2ccccc2[n+]1Cc1ccccc1
2% | O=c1c2nnn(-c3ccc(Br)cc3)c2ncn1Cc1ccccn1
-2% | C/C(CC(=O)NC1CCCCC1)=N\NC(=O)c1ccc(Br)cc1
8% | COc1cc(C#N)ccc1OC(=O)Cc1cc(OC)c(OC)c(OC)c1
1% | Cc1ccc(NC(=O)c2ccccc2N2C(=O)C3C4C=CC(C5CC45)C3C2=O)cc1C (stereo not drawn)
-14% | COc1ccc(NC(=S)NN(C)C(=S)Nc2ccc(OC)cc2)cc1
3% | COC(=O)C1CCN(C(=O)c2ccccc2Oc2ccccc2)CC1
1% | O=C(NC1CCCC1)C1CCCN1C(=O)Nc1ccccc1 (stereo not drawn)
